# Assay outcomes from PubChem BioAssay.
# Mtb growth: M. tuberculosis H37Rv growth inhibitors, H37Rv strain (AID 1626). 220,000 tested, 0.95% active. one-dose inhibition, % at 10 µM; IC50 in µM for titrated hits. M. tuberculosis H37Rv growth inhibition; higher % means a stronger effect;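 active means confirmed in a dose series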;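 further: bacteria incubated seven days before Alamar blue readout; 0% = bacteria only wells and 100% = bacteria with antibiotic wells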
# Mtb bLac sens: beta-lactam sensitization of Mtb H37Rv. M. tuberculosis H37Rv growth with meropenem, percent inhibition; hits of this screen are not shown here. inhibition, % at 25 µM. 330,000 tested, 0.27% active. AID 434955;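 active means about 74% or more and at least 40 points above the plate without the antibiotic, then above 30% in a dose series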;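 further: growth measured after seven days incubation then overnight dye step; 0% = bacteria only wells and 100% = bacteria with antibiotic; twin plates without the antibiotic show which effects depend on it; some results filed as inactive read as strong as hits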
# Arbovirus anti: antivirals against arbovirus infection. arbovirus infection cell-based antiviral screen. 200,000 tested, 0.37% active. AID 1251. inhibition, % at 10 µM;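 active means inhibition from about 30%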;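 further: bluetongue infection of BSR cells; cell survival read as ATP light after 72 h; 0% = infected wells without compound and 100% = uninfected wells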
# RecA splice inh: inhibitors of M. tuberculosis RecA intein splicing; P9WHJ3; cell-free RecA intein splicing, fluorescence; inhibition, %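 (about 9 µM by stock and volumes)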; 290,000 tested, 0.75% active; AID 2221; in the data active means inhibition above about 30%;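 further: 0% = vehicle wells and 100% = reference inhibitor control wells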
# Target sequence (P9WHJ3 whole entry, looked up, canonical isoform): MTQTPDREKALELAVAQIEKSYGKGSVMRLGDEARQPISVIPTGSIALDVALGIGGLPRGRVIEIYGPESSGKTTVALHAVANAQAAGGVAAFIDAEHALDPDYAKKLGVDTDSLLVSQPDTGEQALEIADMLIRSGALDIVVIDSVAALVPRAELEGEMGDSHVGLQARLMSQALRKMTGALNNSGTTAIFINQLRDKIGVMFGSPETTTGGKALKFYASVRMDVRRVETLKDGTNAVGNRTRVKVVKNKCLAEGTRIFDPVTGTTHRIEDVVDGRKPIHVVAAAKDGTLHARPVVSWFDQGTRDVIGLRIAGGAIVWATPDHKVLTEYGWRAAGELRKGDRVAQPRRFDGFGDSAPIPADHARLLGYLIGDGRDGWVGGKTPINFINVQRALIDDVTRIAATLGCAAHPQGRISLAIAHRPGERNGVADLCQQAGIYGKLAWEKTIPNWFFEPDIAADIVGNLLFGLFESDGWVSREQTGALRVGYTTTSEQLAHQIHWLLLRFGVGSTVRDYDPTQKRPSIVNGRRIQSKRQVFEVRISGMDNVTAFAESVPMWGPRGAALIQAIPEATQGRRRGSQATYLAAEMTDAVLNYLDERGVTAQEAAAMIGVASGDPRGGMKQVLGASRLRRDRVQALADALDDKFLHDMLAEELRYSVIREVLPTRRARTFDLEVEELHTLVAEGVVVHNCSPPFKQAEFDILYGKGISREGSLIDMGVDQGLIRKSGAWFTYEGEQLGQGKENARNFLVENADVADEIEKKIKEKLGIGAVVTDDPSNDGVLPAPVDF
# YopH inh: blocks Yersinia enterocolitica YopH tyrosine phosphatase; AID 898; 140,000 tested, 0.16% active; fluorescence Ex485/Em525; inhibition, %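 (about 10 µM by stock and volumes)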;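 active means inhibition of 50% or more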;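 further: controls were vehicle for no effect and minimum signal wells for full effect; inactives centre near -20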
# Arbovirus anti repeat: second read-out of Arbovirus anti, no call of its own (marks repeat the call); inhibition, %; measured here: 10K subset replicate screen; many hits read low in the repeat;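 first of two repeat runs on a subset; 0% = infected and 100% = uninfected wells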
# The depositor's hits bear a star; / = no result given. Not all compounds are listed, so the mix of outcomes need not match the whole.
SMILES,Mtb growth,Mtb bLac sens,Arbovirus anti,RecA splice inh,YopH inh,others
COc1ccc(NC(=O)c2ccc3c(c2)OCO3)cc1[N+](=O)[O-],-4%,-6,-7,-3.5,/,
O=C(CCc1nc(-c2ccccc2Cl)no1)NCC1CCCO1 (configuration not stated),0%,6,6,1.9,/,
O=C(Nc1ccccc1N1CCCC1)c1cccc(-c2cc3ccccc3oc2=O)c1,63%,97,1,13,-2,
Cc1nc2nc(SCC(=O)Nc3cccc(F)c3)[nH]c2cc1Br,/,-6,/,-0.3,/,
Cc1nn(-c2ccccc2)cc1/C=N/O,-2%,-16,-3,-2.5,-46,
Cc1ccc(C)c(NC(=O)C(OC(=O)c2ccc(C)s2)c2ccccc2)c1 (configuration not stated),-6%,1,-1,1.1,-12,
COC(=O)c1sccc1NC(=O)CC1C(=O)NCCN1C(=O)Nc1ccc(C(F)(F)F)cc1 (configuration not stated),-2%,-2,/,-0.4,/,
CCOC(=O)C1=C(CN2CCc3ccccc32)NC(=O)NC1c1cc(C)ccc1C (configuration not stated),3%,85,/,2.9,-42,
CN1CCN(c2ccc(S(=O)(=O)N3CCCCC3)cc2NC(=O)CSCc2ccccc2)CC1,/,-5,/,0.0,/,
COc1cccc(C(=O)C2CCCN(Cc3cccc(-n4cccn4)c3)C2)c1 (configuration not stated),16%,3,/,1.6,/,
COc1cc(NC(=O)c2ccccc2-c2ccccc2)cc(OC)c1OC,3%,-4,6,3.2,/,
Cc1ccccc1C(=O)NC(=S)Nc1ccc(S(=O)(=O)N(C)c2ccccc2)cc1,5%,2,1,1.4,-17,
COc1ccc(/C(N)=N/OC(=O)/C=C/c2ccccc2)cc1,6%,27,4,1.5,/,
COc1cc(-c2nnc(CSc3nnc4nc(C)cc(C)n34)o2)cc(OC)c1OC,-7%,-6,1,-0.4,-47,
CC(C)(C)C(=O)NNC(=O)CCCOc1ccc(Cl)cc1Cl,-2%,2,-4,/,-16,
COc1ccccc1N1CCN(CCCn2c(=S)[nH]c3ccccc3c2=O)CC1,/,0,/,-0.5,/,
COC(=O)C(C)Sc1nc2c(c(=O)[nH]c(=O)n2C)n1CCCc1ccccc1 (configuration not stated),-14%,3,0,-1.6,-5,
CCOC(=O)c1cc(-c2ccccc2)n(CCC(=O)O)c1C,8%,1,7,-0.8,11,
COc1ccc(Nc2cc(C)nc(N3CCOCC3)n2)cc1,10%,-3,1,/,-36,
C=CCOc1ccc(Cl)cc1CNCCCN1CCOCC1,-6%,1,-6,-2.1,-22,
Cc1ccccc1Cn1cnc2c(NS(C)(=O)=O)c(C)c(C)cc21,1%,-4,8,-2.5,-28,
COc1ccc(C(=O)N2CCN(c3nnnn3-c3ccccc3)CC2)cc1OC,-6%,-26,0,3.0,12,
COc1ccc(NC(=O)CSCC(=O)Nc2cccc(S(=O)(=O)N3CCCCCC3)c2)cc1,/,-7,/,3.9,/,
CC(=O)C1=C(C)Nc2ncnn2C1c1cccc(Br)c1 (configuration not stated),/,-1,/,0.8,/,
CC(C)CCNC(=O)c1c(N)n(CC2CCCO2)c2nc3ccccc3nc12 (configuration not stated),7%,38,-49,-77,-12,
O=c1cc(CO)oc(CN2CCN(Cc3ccccc3)CC2)c1O,-5%,-8,3,-0.5,-29,
COc1cc(S(=O)(=O)NCc2ccccn2)c(OC)cc1Cl,-9%,-1,6,1.0,3,
Cc1ccc(S(=O)(=O)c2c(C)nn(C(C)(C)C)c2OC(=O)C(C)C)cc1,6%,-5,0,7.7,/,
CCCOc1ccc(-c2c(=O)n(OCC(=O)OCC)c3ccccc3[n+]2[O-])cc1,/,-5,/,-4.5,/,
CCOC(=O)Cc1csc(NC(=O)c2ccc(S(=O)(=O)N3CCCC3)cc2)n1,-4%,7,6,2.0,-17,
O=C(COC(=O)c1cc(=O)[nH]c2ccccc12)NC(=O)NC1CCCCC1,-1%,-4,3,2.0,-35,
Cc1nc2ccc(S(=O)(=O)N(C)CC(=O)N3CCc4ccccc4C3)cc2s1,6%,27,-4,-0.7,-36,
O=C(Nc1ccc([N+](=O)[O-])cc1)c1cc2ccccc2nc1Cl,78%,94,/,-4.7,/,
CC(=O)c1cc(C#N)c(SCC(=O)C(C)(C)C)nc1C,16%,28,-12,1.6,-27,
O=C(c1ccc(Br)cc1)C(CN1CCOCC1)c1ccccc1 (configuration not stated),/,100,/,17,/,
CCCCCCOC(=O)c1ccc(OC(=O)c2cccnc2)cc1,74%,96,13,61*,-2,
CNc1ccccc1C(=O)OCC(=O)c1ccccc1,0%,5,-1,2.1,-40,
COc1ccc(C(=O)CN(Cc2ccccc2)C2=NCCS2)cc1,3%,0,7,-0.6,-22,
O=C(CN1CCN(c2ccccc2Cl)CC1)NC1CCCc2ccccc21 (configuration not stated),14%,-3,9,3.3,-40,
Cc1ccc(C(=O)Nc2nncs2)cc1S(=O)(=O)N1CCOCC1,-4%,-2,-2,0.8,2,
CCN(CC)c1ccc(C(=O)OCC(=O)N(C(C)C)C(C)C)cc1,7%,4,7,-1.2,/,
Cc1ccc(NC(=S)N2C3CCCC2CC(NC(=O)C2CC2)C3)cc1C (configuration not stated),/,-4,/,0.4,/,
CCC(=O)N1N=C(c2c(-c3ccccc3)c3cc(Cl)ccc3[nH]c2=O)CC1c1ccco1 (configuration not stated),11%,32,2,2.4,-25,
Nc1nc(-c2ccccn2)nc(N)c1Cc1c(F)cccc1Cl,<0.39µM*,75,-23,0.3,/,
O=C(O)CCN1C(=O)CC(N2C(=O)/C(=C/c3ccc(Cl)cc3)SC2=S)C1=O (configuration not stated),-5%,5,-2,5.1,-9,
Cc1ccc2c(CSc3nnc(C4CC4)n3N)cc(=O)oc2c1C,/,-4,10,0.6,-26,
COC(=O)CSC(=S)N1C(C)CCCC1C (configuration not stated),-5%,6,4,1.2,/,
COc1cccc(/C=C2\SC(=S)N(CCCC(=O)Nc3ccc(C(=O)O)cc3)C2=O)c1,/,-4,/,7.9,/,
Cc1ccccc1OCC(=O)Nc1ccc2c(c1)C(=O)c1ccccc1C2=O,2%,3,-18,8.5,-8,
O=C(c1cc(Cl)nc2ccccc12)N1CCN(S(=O)(=O)c2ccccc2[N+](=O)[O-])CC1,/,-11,/,1.9,/,
O=C1CCCN1c1ccc(S(=O)(=O)NCc2ccc(F)cc2)cc1,/,-13,/,-0.3,/,
Cc1cc(C)n2c(SCc3ccc(C#N)cc3)nnc2n1,-3%,-1,1,0.0,-24,
NC(=O)CSc1nnc(C2CC2)n1Cc1ccccc1,-4%,-1,-5,-0.1,-29,
CCCCN(CC)C(=S)Nc1ccc2nc3n(c(=O)c2c1)CCCCC3,0%,8,-1,-1.8,-27,
CCc1ccc(/C=N/NC(=O)c2cc(C3CC3)nc3ccccc23)s1,-2%,7,-8,-1.3,-10,
O=C(COC(=O)Cc1ccccc1F)Nc1ccc2c(c1)OCO2,>100µM*,62,-1,0.2,/,
COc1cccc(CNC(=O)Cn2nc(-c3ccc(Cl)cc3)ccc2=O)c1,5%,-11,5,/,-11,
Cc1cccn2c(CNCCCOc3cccnc3)c(C(=O)N3CCOCC3)nc12,-2%,-5,5,0.5,/,
CC(C)CC(=O)CC1(O)C(=O)Nc2ccccc21 (configuration not stated),4%,9,17,0.1,/,
O=C(Cc1csc(NC(=O)c2ccccc2)n1)NO,3%,70,-19,-0.9,/,
# Additional entries:
SMILES,Mtb growth,Mtb bLac sens,Arbovirus anti,RecA splice inh,YopH inh,others
COc1cc(NC(=O)c2cccs2)c(C(=O)OCC(=O)c2cc(C)n(-c3ccccc3)c2C)cc1OC,55%,4,2,-4.5,-13,
O=C(c1ccc(Cl)cc1)N1CCN(c2cccc3[nH]ccc23)CC1,-2%,31,/,0.2,/,
Cc1ccccc1-c1nnc(SCC(=O)N(C)c2c(N)n(Cc3ccccc3)c(=O)[nH]c2=O)n1C,/,-1,/,-2.6,/,
CCOc1ccc(-c2cc(CCCC(=O)NCc3ccco3)no2)cc1,8%,3,-18,0.2,-22,Arbovirus anti repeat=-12
COc1ccc(C2C(CC(=O)O)=C(O)C(=O)N2c2ccccc2)cc1 (configuration not stated),0%,-4,1,6.4,-37,
COc1ccc(CCNC(=O)CSc2ccc3nnc(CCNC(=O)c4ccc(C)cc4)n3n2)cc1OC,/,-3,/,1.3,/,
O=C1CCC(c2ccccc2)=NN1,-7%,2,-2,6.0,/,
CC(Cc1ccccc1)NC(=O)C1(c2ccccc2)CCOCC1 (configuration not stated),-4%,13,6,-0.5,-12,
O=C1CCC(c2ccc(-n3ccnc3)cc2)=NN1,-7%,2,/,2.4,/,
COc1cc(-c2nc(CN(C)C(C)c3ccncn3)c(C)o2)ccc1F (configuration not stated),2%,68,6,-1.3,/,
CC/C(=N\NC(C)=O)c1ccc(OC(F)F)cc1,1%,-2,3,-6.8,/,
CC1=C(C(N)=O)C(c2ccc(Cl)cc2)n2nc(CCCO)nc2N1 (configuration not stated),/,-8,/,0.5,/,
COc1cccc(CNC(=O)CCc2nnc(C3CCCCC3)o2)c1,3%,-2,2,-0.2,/,
CN(CC1CCOCC1)C(=O)CC1C(=O)NCCN1Cc1cccc(Oc2ccccc2)c1 (configuration not stated),2%,4,0,7.1,/,
Cc1ccc(S(=O)(=O)N2CCC(O)(c3cccnc3)CC2)cc1,11%,2,6,0.2,-24,
Cc1cccc(-c2nc(C#N)c(N3CCCCCC3)o2)c1,10%,11,11,-0.1,16,
CC(C)(C)C1CCc2onc(C(=O)Nc3cnn(Cc4ccc(F)cc4)c3)c2C1 (configuration not stated),-3%,-1,0,-0.9,-34,
O=C(/C=C/c1ccc(-c2ccccc2[N+](=O)[O-])o1)c1ccc(F)cc1,-1%,61,1,0.6,-30,
CSC1=NCCCN1C(=O)c1c(-c2ccccc2Cl)noc1C,-13%,-5,/,0.3,/,
CCCNS(=O)(=O)c1ccc(CCC(=O)N2CCN(c3ccc(OC)cc3)CC2)cc1,-3%,-2,2,0.0,-22,
CC(=O)Oc1ccc(C(=O)NCc2ccc3c(c2)OCO3)cc1,/,2,/,3.5,/,
CC(=O)Nc1ccc(NS(=O)(=O)c2cn(C)c(=O)n(C)c2=O)cc1,-2%,-3,6,2.7,-7,
COc1ccc(/C=C2\S/C(=N/S(=O)(=O)c3cccs3)NC2=O)cc1,-9%,-9,28,-10,/,
CC(CC(=O)N1CCN(c2ccccc2)CC1)S(=O)(=O)c1ccc2c(c1)NC(=O)CS2 (configuration not stated),/,2,/,-2.1,/,
O=C(Nc1ncnc2c1CCC2)C12CC3CC(CC(C3)C1)C2,-1%,2,11,-0.8,-35,
COc1ccc(N2CC(NC(=O)NC(C)(C)C)CC2=O)cc1 (configuration not stated),2%,8,4,-1.2,-28,
CN(C)/C(=N\S(=O)(=O)c1ccccc1)c1ccccc1,/,1,/,-1.2,/,
COc1ccc(-c2cc(C(=O)NCC(C)C)no2)cc1,13%,6,10,3.0,-18,
O=C(Cc1ccccc1[N+](=O)[O-])Nc1ccccc1C(=O)N1CCOCC1,-1%,-2,-1,/,/,
CCOc1cccc(NC(=O)/C(C#N)=C\c2cn(CC(=O)O)c3ccccc23)c1,/,-2,/,0.3,/,
Cc1ccc(CNC(=O)C(=O)NCC2OCCN2S(=O)(=O)c2ccc(Br)cc2)cc1 (configuration not stated),/,10,/,2.2,/,
